Cruzain inh noDet = inhibitors of Trypanosoma cruzi cruzain without detergent; P25779; purified cruzain, Z-FR-AMC fluorescence, no detergent; Potency, µM, for inactives: max response, negative = inhibition, actives largely listed as inhibitors; 200,000 tested, 2.3% active; AID 1476;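 also: plate controls were enzyme without inhibitor for no effect and buffer without enzyme for full effect; nearly all actives have a fitted effect of over 40% in size; top concentration of the series not given in the record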
Target sequence (P25779 123-467 limits assumed): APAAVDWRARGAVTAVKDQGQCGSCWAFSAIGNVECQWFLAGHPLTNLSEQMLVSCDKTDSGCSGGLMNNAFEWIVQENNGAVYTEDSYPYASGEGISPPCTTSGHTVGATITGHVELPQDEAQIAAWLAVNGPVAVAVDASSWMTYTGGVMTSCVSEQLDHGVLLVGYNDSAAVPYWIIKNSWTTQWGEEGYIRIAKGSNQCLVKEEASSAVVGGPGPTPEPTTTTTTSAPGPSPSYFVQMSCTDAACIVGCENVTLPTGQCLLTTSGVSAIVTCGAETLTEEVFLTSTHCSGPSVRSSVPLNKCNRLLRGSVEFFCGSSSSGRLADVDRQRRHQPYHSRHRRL
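Purified cruzain at 1.5 nM, pre-incubated 15 min with compound at room temperature in 100 mM sodium acetate pH 5.5, 5 mM DTT, 0.00005% Triton X-100. Reaction started with 2 uM Z-FR-AMC; AMC fluorescence increase over 60 s gives rate.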
SARS PLP yeast = SARS-CoV PLP inhibition in yeast. S. cerevisiae expressing SARS-CoV PLpro, growth rescue; control for the full effect not named in the record. Potency, µM (highest dose often 32.9 µM), without a hit: at the highest dose activity, positive = growth rescue. 330,000 tested, 0.19% active. AID 485353; active means well fitted rising curve with a large enough effect; inconclusive means small, poorly fitted or top-dose-only effect; inactive means no such curve, though single readings can be large or run the other way; also: 0% is about no effect; nearly all actives have a fitted effect of over 55% in size; growth read by luminescence after 48 h
Cruzain inh Det = blocks cruzain activity in presence of Triton detergent. P25779. purified cruzain, Z-FR-AMC fluorescence, 0.01% Triton. Potency, µM, without a hit: max response, negative = inhibition, usual class: inhibitors. AID 1478. 200,000 tested, 0.43% active;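 also: plate controls were neutral wells for no effect and buffer without enzyme for full effect; nearly all actives have a fitted effect of over 40% in size; top concentration of the series not given in the record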
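Purified cruzain (1.5 nM final) was preincubated with compounds for 15 min at room temperature in 100 mM sodium acetate pH 5.5, 5 mM DTT, 0.01% Triton X-100. Reaction started with 2 uM Z-FR-AMC; AMC fluorescence change over 60 s gave activity.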
RE007 growth inh = less growth of the S. pombe RE007 Vpr strain. S. pombe RE007 Vpr strain, BacTiter-Glo ATP luminescence, 24 h; control for the full effect not named in the record. Potency, µM (highest dose often 92.2 µM), for inactives: at the highest dose activity change, negative = less growth. 360,000 tested, 0.21% active; active = well fitted falling curve with a large enough effect; inconclusive = small, poorly fitted or top-dose-only effect; inactive = no such curve, though single readings can be large or run the other way;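 also: % is scaled to controls: 0 for no effect and ±100 for the full control effect; nearly all actives have a fitted effect of over 50% in size; the assay follows cell death caused by Vpr and the record does not say whether a fall means rescue or toxicity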
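Fission yeast RE007 carrying one integrated HIV-1 vpr copy, seeded at OD 0.01 in PMG+AL medium with 23 nL pinned compound. Grown 24 h at 30 degrees; viability read by BacTiter-Glo luminescence after 5 min.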
MARV entry inh = inhibitors of Marburg virus binding or cell entry | Marburg virus pseudotyped entry inhibition, cell reporter; control for the full effect not named in the record; about a third of the inactives were read at about 46 µM | Potency, µM (titrated, usually from 37.8 µM), for inactives: top-dose activity change, negative = inhibition, usual class: inhibitors | 300,000 tested, 1.8% active | AID 540276; active = well fitted inhibition curve with a large enough effect; inconclusive = small, poorly fitted or top-dose-only effect, or effect the other way; inactive = flat fitted curve, though single readings scatter; tested in HEK293 cells; about a fifth of its hits are not listed in these tables; also: % is scaled to controls: 0 for no effect and ±100 for the full control effect; luciferase read-out
NS1 function inh = blocks influenza NS1 protein function | AID 2326 | 270,000 tested, 0.4% active | Potency, µM (titrated, usually from 46.1 µM), inactives show at the highest dose activity, positive = more growth | S. cerevisiae slowed by influenza A NS1, growth recovery by OD600; active means well fitted rising curve with a large enough effect; inconclusive means small, poorly fitted or top-dose-only effect; inactive means no such curve, though single readings can be large or run the other way; also: nearly all actives have a fitted effect of over 50% in size
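Recovery from NS1-induced slow growth read by OD600 in budding yeast switched to galactose assay medium (pH 6.0, -URA) at 1:100 dilution. Compound 23 nl per well; the matching strain lacking NS1 serves as control.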
StopGo reporter = FMDV 2A StopGo reporter, luciferase signal. 410,000 tested, 1.2% active. human cells with a luciferase reporter of 2A StopGo recoding; control for the full effect not named in the record. Potency, µM (series often up to 57.9 µM), for the others: at the top dose signal change, negative = less light; active = well fitted falling curve with a large enough effect; inconclusive = small, poorly fitted or top-dose-only effect; inactive = no such curve, though single readings can be large or run the other way; tested in HEK293T cells; also: % is scaled to controls: 0 for no effect and ±100 for the full control effect; nearly all actives have a fitted effect of over 45% in size; luciferase light after 4 h
Lassa entry inh = Lassa virus entry inhibition. Lassa virus pseudotype entry inhibition, cell reporter; control for the full effect not named in the record. Potency, µM (top dose mostly 37.9 µM), for the others: top-dose activity change, negative = inhibition, usual class: inhibitors. 300,000 tested, 1.2% active; active means well fitted inhibition curve with a large enough effect; inconclusive means small, poorly fitted or top-dose-only effect, or effect the other way; inactive means flat fitted curve, though single readings scatter; tested in HEK293 cells; also: % is scaled to controls: 0 for no effect and ±100 for the full control effect; nearly all actives have a fitted effect of over 50% in size; luciferase read-out
Active calls of the source: *; ? = inconclusive; · = not tested or not shown; & = joins results of further samples; [ ] = dose if it differs, or a comment. Unless noted, calls follow the shape of the dose curve; as a rule, active = well fitted curve in the direction sought with a large enough effect; inconclusive = small, poorly fitted or top-dose-only effect, or another doubt; inactive = no such curve, though single readings can be large; an effect the other way counts as inactive or inconclusive. Potency is read from the fitted curve at half-maximal effect.

Screens in order: Cruzain inh noDet | SARS PLP yeast | Cruzain inh Det | RE007 growth inh | MARV entry inh | NS1 function inh | StopGo reporter | Lassa entry inh
- O=C(C1CCCN(S(=O)(=O)c2ccc(Br)s2)C1)N1CCN(c2ccccc2F)CC1 (stereo not given)
  9% | · | -1.8% | · | 9%[46.1 µM] | · | -14% | 2%[46.1 µM]
- Cc1cc(C(=O)CSc2nnc(-c3ccc(Cl)cc3)n2C)c(C)n1CC1CCCO1 (stereo not given)
  -13% | 4% | 2.1% | -2% | -5% | -3% | -28% | -16%
- O=C(COC(=O)c1ccccc1O)Nc1cccc(S(=O)(=O)NC2=NCCCCC2)c1
  · | 1% | · | -6% | 24%[46.1 µM] | ? | -25% | 23%
- CCOC(=O)C1CCCN(C(=O)C(=O)c2cn(CC(=O)N3CCOCC3)c3ccccc23)C1 (stereo not given)
  · | 6% | · | -9% | 0% | -1% | -9% | 3%
- Nc1nnc(SC2CC(=O)N(c3ccccc3)C2=O)s1 (stereo not given)
  9% | -34% | 2.9% | 28µM* | -6% | -216% | -13% | 11%
- Cc1cc(C)c(S(=O)(=O)NCC2CCC(C(=O)N3CCC4(CC3)OCCO4)CC2)c(C)c1 (stereo not given)
  ? | 5% | 1.9% | 8% | -3% | -2% | · | -16%
- COc1cc(C(=O)Nc2ccc(S(=O)(=O)Nc3cnc4ccccc4n3)cc2)cc(OC)c1OC
  · | -6% | · | 0% | · | ? | 74%[activator] | ·
- CC(C)N1CCC(N2CCN(C3CCCCC3)CC2CCO)CC1 (stereo not given)
  · | -1% | · | · | 22%[46.1 µM] | 4% | -1% | -17%[46.1 µM]
- Cc1ccc(C(=O)N2CCN(c3ccccc3)CC2)cc1S(=O)(=O)N1CCCC1
  14% | 1% | 1.9% | 22% | ? | -3% | ? | ?
- CC(=O)Nc1ccc2nc(NC(=O)c3cccnc3)sc2c1
  · | -1% | · | -5% | · | 2% | 68%[activator] | ·
- CC1CCCC(NC(=O)COC(=O)c2ccc([N+](=O)[O-])s2)C1C (stereo not given)
  · | -26% | · | ? | 12% | · | -8% | 4%
- CC(C)C(=O)Nc1ccc(NC(=O)c2ccco2)cn1
  2% | -1% | -1.7% | -10% | 3% | 1% | 53%[activator] | -22%
- O=C(NCCc1ccc(Cl)cc1)C1CC(=O)N(CCc2ccccc2)C1 (stereo not given)
  · | 0% | · | 3% | · | -7% | 15% | ·
- CN(c1cccc(Cl)c1)S(=O)(=O)c1cccc(C(=O)Nc2ccc3c(c2)CCC3)c1
  ? | 13% | -2.4% | -9% | 2.2µM* | ? | -11% | ?
- CCCN1CCC(NC(=S)Nc2ccc(C(=O)OCC)cc2)CC1
  -14% | -7% | -1.5% | 3% | ? | -4% | -3% | -4%
- CCOc1ccc(-c2c(C(=O)N/N=C/c3ccco3)nnn2-c2nonc2N)cc1
  · | 0% | · | 0% | · | 12% | -2% | ·
- COc1ccc(-c2cn[nH]c2-c2ccc(OCc3ccccc3)cc2O)cc1
  · | -9% | · | ? | ? | -19% | -48% | 3.5µM*
- COc1ccc(/C=N/NC(=O)CN(C2=NS(=O)(=O)c3ccccc32)c2ccccc2)cc1
  ? | 5% | -4.4% | · | ? | 21% | -17% | 0%
- C=C(C)c1cccc(C(C)(C)NC(=O)Nc2cccnc2)c1
  · | 0% | · | -12% | ? | 1% | 0% | ?
- COC(=O)c1ccc2c(c1)N(Cc1ccc(Cl)cc1)C(=O)c1ccccc1S2
  4% | · | -2.8% | · | · | · | -13% | 13%[46.1 µM]
- Cc1ccc(-n2nc(C(=O)N3CCN(c4cc(Cl)ccc4C)CC3)c(=O)n(C)c2=O)cc1
  16% | · | 0.2% | · | · | · | -16% | -21%[46.1 µM]
- COc1ccc2c(c1)c1c(c(=O)n(CCc3ccccc3)c(=O)n1Cc1cccc(F)c1)n2C
  1% | · | -1.0% | · | · | · | -17% | 6%[46.1 µM]
- COC(=O)C1=C(C(=O)OC)C(c2cc(Cl)ccc2O)c2sc(=O)[nH]c2S1 (stereo not given)
  -7% | -7% | -11% | -13% | -16% | -2% | 1% | -3%
- C/C(Cc1nnn(-c2cc(C)on2)n1)=N\O
  · | 1% | · | 3% | 4%[46.1 µM] | 4% | 1% | 13%[46.1 µM]
- COc1ccc(C(CNC(=O)CCNS(=O)(=O)c2ccc(Br)cc2)N2CCCC2)cc1 (stereo not given)
  · | -4% | · | ? | ? | · | -19% | 11%
- CCCN(c1ccccc1CC)S(=O)(=O)c1ccc2c(c1)CC(C)N2C(=O)C1CC1 (stereo not given)
  5% | · | -7.8% | · | · | · | ? | ?
- CC(C)C[C@H](NC(=O)c1nc[nH]c1C(=O)NCc1ccc(CNC(=O)OC(C)(C)C)cc1)C(=O)OC(C)(C)C
  · | 9% | · | 7% | · | 8.9µM* | -15% | ·
- CC(C)[C@H](NC(=O)c1ccccc1)C(=O)OCC(=O)Nc1ccc(S(=O)(=O)N2CCOCC2)cc1
  · | 19% | · | 4% | 10% | · | -20% | ?
- Cc1c(Br)c(C(F)(F)F)nn1CC(=O)NCc1ccco1
  · | 0% | · | -19% | ? | · | -20% | 7%
- S=C(NN=C(C1CC1)C1CC1)Nc1ccccc1
  -10% | -4% | -6.8% | -15% | 3% | 8% | 71%[activator] | ?
- CCOc1ccccc1OCC(=O)OCC(=O)NNC(=O)c1ccc([N+](=O)[O-])cc1
  · | -1% | · | 5% | 7% | -2% | -8% | 7%
- Cc1ccc(CN2C(=O)CCC2C(=O)NCC2CCCO2)cc1 (stereo not given)
  7% | -4% | 2.3% | 1% | 1% | 2% | 2% | 8%
- O=C(CC1SC(=O)N(Cc2ccccc2Cl)C1=O)Nc1nccs1 (stereo not given)
  · | 1% | · | 3% | ? | -6% | ? | 20%
- COc1ccccc1N1CCN(C(=O)CCn2c(=O)[nH]c3ccsc3c2=O)CC1
  -4% | 0% | 1.6% | -6% | 0%&0% | -8% | -17% | 4%
- COCCCN1C(=O)c2ccc(C(=O)NCc3ccccn3)cc2C1=O
  · | ? | · | -9% | -7%[46.1 µM] | -12% | -2% | 5%[46.1 µM]
- O=C(c1cccn2c(=O)c3cc(Cl)ccc3nc12)N1CCN(Cc2ccc3c(c2)OCO3)CC1
  ? | -4% | -2.0% | -20% | ? | -59% | -24% | 2%
- COc1ccccc1N1CCN(C(=O)/C=C/c2c(Cl)nc3ccccn23)CC1
  · | -4% | · | 9% | ? | · | ? | ?
- O=C(COc1coc(CN2CCc3ccccc3C2)cc1=O)Nc1ccc(F)cc1F
  · | 4% | · | -15% | ? | · | ? | 1%
- Cc1cc(C)n(CC(=O)c2ccc(Br)cc2)c(=O)c1C#N
  -1% | 0% | -2.5% | -16% | 10% | -5% | -29% | 2%
- Cn1c(SCc2ccc(C#N)cc2)nnc1-c1ccccc1
  ? | -1% | 0.0% | 1% | 14% | -11% | -2% | 0%
- Cc1cc(C)n(-c2nnc(C)n2NS(C)(=O)=O)n1
  -8% | 4% | -1.7% | -15% | 23% | 11% | -5% | -22%
- CC(C(=O)Nc1ccc(Br)cc1C(=O)c1ccccc1)N1CCCCC1 (stereo not given)
  -4% | 0% | -6.3% | 7%[3.69 µM] | ? | -15% | -13% | 6%
- C/C(=N/NS(=O)(=O)c1ccc(C)cc1)c1c[nH]c2ccccc12
  · | -6% | · | 14% | -28%[46.1 µM] | -7% | 15% | 12%[46.1 µM]
- COc1cccc(CNc2cccc3cccnc23)c1O
  -22% | -23% | -4.3% | -16% | 17% | -51% | 20% | -19%
- Cc1nnc(SCc2nc(N)nc(Nc3ccccc3)n2)s1
  6% | 1% | 7.0% | 15% | 0% | 27% | 0% | -8%
- COc1ccc(C(C)=O)cc1CSc1nnc(-c2ccc(Cl)cc2)n1-c1ccccc1
  0% | 6% | -2.6% | 13% | ? | 1µM* | -23% | ?
- Cc1ccc(/C(N)=N/OC(=O)c2cccc(Cn3cc(C(F)(F)F)ccc3=O)c2)cc1
  · | 0% | · | 1% | ? | 5% | ? | ?
- COc1cccc(CNC(=O)C(C)n2nc(C)n3c(cc4occc43)c2=O)c1 (stereo not given)
  · | 0% | · | 10% | -4%[46.1 µM] | 7% | -3% | 0%[46.1 µM]
- O=C(CCN1C(=O)c2ccccc2C1=O)C1=NN[C@@H]2C(=O)N(c3cccc(F)c3)C(=O)[C@H]12
  -10% | 12% | -0.8% | -1% | 15% | 22% | -4% | -5%
- CCC(Sc1nc2ccsc2c(=O)n1-c1ccc(Cl)c(C)c1)C(=O)NCc1ccco1 (stereo not given)
  -14% | -27% | -13% | 19% | ? | 19% | 0% | -17%
- Cc1ccc(CCNC(=O)C23CN(Cc4ccccc4)CC2C(c2ccc([N+](=O)[O-])cc2)=NO3)cc1 (stereo not given)
  -20% | -10% | -3.0% | -26% | 0% | 5% | -1% | ·
- CCCC(=O)Nc1ccc2c(c1)nc1n2CCN(CCOC)C1
  · | -1% | · | -18% | ? | 3% | 3% | ?
- CC(=O)Nc1ccc(S(=O)(=O)NCc2csc(C)n2)cc1
  4% | -9% | 1.0% | -8% | 3% | 6% | · | 1%
- CC(C)CNS(=O)(=O)c1ccc(OCC(=O)Nc2ccc(F)cc2F)cc1
  -15% | 8% | 3.2% | -10% | -4% | 10% | 54%[activator] | 1%
- CC(C)N(C(=O)CN1CCC(c2nc3ccccc3[nH]2)CC1)C(C)C
  · | -8% | · | -6% | · | -6% | -28% | ·
- CCOC(OCC)P(=O)(C(C)C)C(C)C
  -3% | 2% | 1.2% | -5% | 1% | 14% | -13% | 8%
- COc1ccc(N2C(=O)C(Cl)=C(N3CCOCC3)C2=O)cc1
  · | 1% | · | 21% | ? | ? | 2% | 10%[46.1 µM]
- COC(=O)C1CCN(C(=O)CN(C)Cc2ccc(C(C)(C)C)cc2)CC1
  · | 1% | · | -1% | -5%[46.1 µM] | 2% | -18% | -18%
- Cn1c(=O)n(C)c2cc(CNCCc3ccccc3F)ccc21
  -2% | · | 1.3% | · | 8%[46.1 µM] | · | 19% | -17%[46.1 µM]
- COc1ccc(-c2[nH]ncc2/C=N/NC(=O)c2cccc([N+](=O)[O-])c2)cc1OC
  · | -2% | · | 15% | 18% | -32% | ? | -7%

Compound activity from PubChem BioAssay.
